# PINK1 modulator – A Quantitative High throughput Screen to Identify Chemical Modulators of PINK1 Expression. PINK1 immunofluorescence, high-content cytometry, 24 h. Potency, µM (top dose mostly 76.6 µM), inactives show at the highest dose activation (PINK1 increase), actives largely listed as activators. hit rate 0.2% among 410,000. AID 624263, 2012; active = well fitted activation curve with a large enough effect; inconclusive = small, poorly fitted or top-dose-only effect; inactive = flat fitted curve, though single readings scatter; cell line not stated here;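 also: potency is read from the fitted curve at half-maximal effect; % of control where 0% means no effect; nearly all actives have a fitted effect of over 65% in size; a mitochondrial uncoupler was the plate control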
#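 Fluorescence from anti-PINK1 antibody, together with nuclear and cell stains, was scanned on a laser-scanning cytometer. Before staining, stable-line cells were incubated 24 hours with compounds at 5 concentrations; primary antibody 12 h at 10 degrees C.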
# Sfp PPTase inh – qHTS Assay for Inhibitors of Bacillus subtilis Sfp phosphopantetheinyl transferase (PPTase); hit rate 3.5% among 310,000; AID 1490, 2009; Biochemical Sfp PPTase activity, qHTS; Potency, µM, for inactives: max response, negative = inhibition, most hits filed as inhibitors; active = well fitted inhibition curve with a large enough effect; inconclusive = small, poorly fitted or top-dose-only effect, or another doubt; inactive = no such curve, though single readings can be large or run the other way;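 also: the enzyme is Sfp with the accession as filed and its product quenches rhodamine fluorescence; potency is read from the fitted curve at half-maximal effect; 0% = enzyme reaction without inhibitor and -100% = no enzyme wells; top concentration of the series not given in the record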
#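 Fluorescence-quenching assay with 15 nM Sfp, 5 uM rhodamine-CoA and 12.5 uM BHQ-2-labelled ybbR peptide in pH 7.6 Hepes/MgCl2 buffer. Enzyme was pre-incubated with compound for 15 min at room temperature. Rate was taken from the 30-min fluorescence change (525/598 nm).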
# TRPML1 ag – qHTS for Agonists of the Human Mucolipin Transient Receptor Potential 1 (TRPML1) | Mucolipin-1 (Homo sapiens), Q9GZU1 | TRPML1-expressing cells, Ca2+ dye fluorescence, FDSS; host cell line not named in the record; reference of the full effect not given here | activation, % (no concentration beside the values) | hit rate 0.12% among 410,000 | AID 624414, 2012; in the data active = activation above about 50%; inconclusive = about 30% to 50%; inactive = below about 30%; also: 0% is about no effect; the text of the record puts the active cut at 80%
#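 Agonist activity was taken from a 110 s kinetic Ca2+ dye read on the FDSS after pinning compounds onto TRPML1-DL cells. The cells were seeded at 1,500/well with Tet inducer, incubated about 16 h, then dye-loaded at room temperature.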
# TRPML1 inh – qHTS for Inhibitors of the Human Mucolipin Transient Receptor Potential 1 (TRPML1); hit rate 0.02% among 390,000; TRPML1-inducible cells, Ca2+ dye fluorescence, FDSS; hits give low values; inhibition of EC80 agonist-evoked calcium signal; Mucolipin-1 (Homo sapiens), Q9GZU1; activity change, negative = inhibition, % (no concentration beside the values); in the data active means activity change below about -50%; inconclusive means about -30% to -50%; inactive means above about -30%;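 also: stimulus is agonist 54-4 at its EC80 concentration; % is scaled to controls: 0 for no effect and ±100 for the full control effect; compound concentration not given in the record; the text of the record puts the active cut at -80%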
#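 TRPML1-DL cells, Tet-induced overnight (~16 h, 37 °C) at 1,500 cells/well, were loaded with Ca8 no-wash dye plus quencher for 45-90 min at room temperature. Compounds were pinned during FDSS kinetic reading; agonist 54-4 at EC80 (4 uM final) then added.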
# TRPV1 PAM – HTS Assay for Compounds that Act as Potentiators of the Vanilloid Receptor 1; Transient receptor potential cation channel subfamily V member 1 (Homo sapiens), Q8NER1; TRPV1-expressing cells, Fluo-8 calcium influx, capsaicin EC20 potentiation; host cell line not named in the record; control for the full effect not named in the record; potentiation, % at 8.33 µM; hit rate 0.02% among 320,000; AID 540277, 2011; active means potentiation above 80%; inconclusive means 30% to 80%; inactive means below 30%; also: 0% is about no effect
# Target sequence (Q8NER1 whole entry, looked up): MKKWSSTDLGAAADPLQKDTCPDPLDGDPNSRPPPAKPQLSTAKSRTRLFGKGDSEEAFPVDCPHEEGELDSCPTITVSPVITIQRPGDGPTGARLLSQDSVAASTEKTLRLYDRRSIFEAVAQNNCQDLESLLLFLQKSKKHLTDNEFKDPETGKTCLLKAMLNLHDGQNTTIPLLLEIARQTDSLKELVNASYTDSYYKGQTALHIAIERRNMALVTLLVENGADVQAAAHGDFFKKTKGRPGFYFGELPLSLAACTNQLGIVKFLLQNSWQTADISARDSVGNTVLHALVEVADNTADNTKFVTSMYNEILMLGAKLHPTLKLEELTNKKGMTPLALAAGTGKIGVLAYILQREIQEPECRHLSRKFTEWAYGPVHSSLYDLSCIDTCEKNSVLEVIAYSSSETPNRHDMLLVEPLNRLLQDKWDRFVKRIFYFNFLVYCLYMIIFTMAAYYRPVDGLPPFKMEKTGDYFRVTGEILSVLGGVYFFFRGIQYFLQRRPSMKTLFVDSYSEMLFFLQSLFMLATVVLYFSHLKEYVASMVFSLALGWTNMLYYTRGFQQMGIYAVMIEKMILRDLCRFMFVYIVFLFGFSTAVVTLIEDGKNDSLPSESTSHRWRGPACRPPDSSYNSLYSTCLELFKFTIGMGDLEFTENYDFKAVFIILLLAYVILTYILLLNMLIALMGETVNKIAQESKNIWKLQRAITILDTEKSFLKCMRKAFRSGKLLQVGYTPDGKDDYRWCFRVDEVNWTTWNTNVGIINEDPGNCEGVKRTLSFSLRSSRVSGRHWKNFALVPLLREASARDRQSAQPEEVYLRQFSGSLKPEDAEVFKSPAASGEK
#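 TRPV1-expressing cells were cultured overnight at 35.5C and loaded with Fluo-8 calcium dye for 40 to 90 min at room temperature. After a 10 s baseline, compound was added and calcium influx was read kinetically for 3 min (ex 480/em 520 nm).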
# ClpP mod – qHTS Assay for Activators of ClpP; ATP-dependent Clp protease proteolytic subunit (Bacillus subtilis (strain 168)), P80244; purified B. subtilis ClpP, FRET peptide cleavage, 20 min; Potency, µM (top dose mostly 57.5 µM), for inactives: at the highest dose activity change, negative = active; hit rate 1.9% among 340,000; active = well fitted falling curve with a large enough effect; inconclusive = small, poorly fitted or top-dose-only effect; inactive = no such curve, though single readings can be large or run the other way; also: potency is read from the fitted curve at half-maximal effect; the source files actives as falling curves though it sought activators and does not explain the sign; nearly all actives have a fitted effect of over 65% in size; many hits overshoot -100%
# Target sequence (P80244 whole entry, looked up): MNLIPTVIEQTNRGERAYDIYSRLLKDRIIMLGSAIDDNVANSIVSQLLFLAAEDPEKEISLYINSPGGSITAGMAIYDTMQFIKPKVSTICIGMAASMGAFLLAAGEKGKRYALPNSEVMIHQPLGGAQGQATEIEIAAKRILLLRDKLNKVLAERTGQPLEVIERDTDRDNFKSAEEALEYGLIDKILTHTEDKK
#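 Buffer: 100 mM Tris/HCl pH8, 100 mM KCl, 0.05% low protease BSA, 2.5% glycerol, 0.01% Tween-20. ClpP 10 microg/mL final; 20 min RT; delta FRET normalized to ADEP and DMSO controls.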
# Menin MLL FP FL – qHTS Assay for Inhibitors Targeting the Menin-MLL Interaction in MLL Related Leukemias: Competition With Fluorescein Labeled MLL-derived Peptide; AID 1766, 2009; 290,000 tested, under 10 active; FP activity change, % at 61.4 µM; Fluorescence polarization, fluorescein-MLL peptide displacement from menin; inconclusive = falling polarisation curve, or a change in total fluorescence; inactive = total fluorescence flat and polarisation flat or rising; no compound was filed as active; the % refers to the polarisation; negative = inhibition;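 also: % of control where 0% means no effect; inhibitors lower the polarisation; unlabelled MLL peptide was the positive control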
# The depositor's hits bear a star; u = inconclusive; x = no result given; & = joins results of further samples; [ ] = remark or other dose.
SMILES,PINK1 modulator,Sfp PPTase inh,TRPML1 ag,TRPML1 inh,TRPV1 PAM,ClpP mod,Menin MLL FP FL
C[C@]12CCC3C(CC[C@H]4CC(O)CC[C@]34C)C1CC/C2=N/NC(=O)c1ccncc1 (some centres not stated),3.0%,25%,0.0,-5,3,x,-6.9
Cc1ccc2nc(C)c(Cl)c(=O)n2c1,-0.8%,21%,-0.4,1,-4,-12%,-0.3
Cc1cc(OCC(=O)NCCc2ccc(Cl)cc2)c2c(C)cc(=O)oc2c1,1.9%,9%,0.6,8,6,u,0.2
COc1ccc(-c2nc3ccc(Cl)cn3c2Nc2ccc(C)cc2)cc1,4.8%,x,3.3,82,x,5.4%,x
COc1ccc(N(CC(=O)NCc2ccc(C)cc2)S(=O)(=O)c2c(C)[nH]c(=O)[nH]c2=O)cc1,1.1%&2.1%,23%,0.5&0.6,-18&-1,-29,-1.3%&2.5%,-2.4
COc1ccccc1/C=C/C=N/N1CCN(c2ccccn2)CC1,-0.5%,-18%,-0.9,-11,-4,-12%,1.9
Cc1noc(C)c1-c1ccc(C(=O)Nc2cccc(C(F)(F)F)c2)c2occc12,3.1%,x,-0.3,x,x,u,x
O=C(NCc1ccco1)c1cc(-c2cccnc2)nc2ccccc12,0.3%[38.3 µM],-12%,-0.1,0,-4,-8.6%,-1.3
OC(c1cc(Cl)cc(Cl)c1)c1ncc(-c2ccccc2C(F)(F)F)[nH]1 (configuration not stated),14%,x,1.3,x,x,-0.2%,x
CCCCOC(=O)Nc1nc2ccc(OC)cc2s1,x,-1%,-0.2,-1,x,1.4%,0.4
Cc1cc(C)c2oc(C(=O)N(Cc3ccc(F)cc3)C3CCS(=O)(=O)C3)cc(=O)c2c1 (configuration not stated),u,5%,0.3&2.3,1&6,3,-4.2%&-0.3%,x
CCCc1nn(C)c(C(=O)Nc2ccc(C(C)(C)C)cc2)c1Cl,u,-7%,2.0,2,-9,-4.9%,4.8
CN1CCN(C(=S)C(=O)Nc2ccc(Br)cc2)CC1,0.5%,1.3µM*,-0.2,-4,7,x,4.3
COc1ccc(C(=O)Cn2cnc3ccccc3c2=O)cc1,3.5%,16%,0.0,-4,0,x,11
NCCc1nnc(SCc2ccc(Cl)cc2)o1,0.5%,x,1.3,-5,x,0.2%,x
Cc1c(C(N)=O)sc2ncn(CC(=O)OC(C)C)c(=O)c12,-0.5%,-1%,0.1,7,28,-4.5%,5.3
CC(=O)Nc1ccc2c(c1)nc(CCN1CCN(c3ccccn3)CC1)n2C,5.2%,15%,0.1,-10,-2,-0.6%,-1.0
O=C(NCCCN1CCCC1=O)c1cc(S(=O)(=O)N2CCOCC2)c(Cl)cc1Cl,1.5%,x,-0.3,-10,-14,x,x
COc1ccc2nc(NC(=O)Nc3ccccc3OC)sc2c1,8.5%,u,-0.1,-8,1,x,-6.4
CC(NCCCSc1ccccc1)C(O)c1ccc(O)cc1 (configuration not stated),-1.7%,x,-0.5,-6,x,-3.3%,x
CC(C)CN(C(=O)c1cccc([N+](=O)[O-])c1)c1c(N)n(CC(C)C)c(=O)[nH]c1=O,0.1%,21%,-0.3,-2,0,x,-9.6
C/C(=N\NC(=O)c1ccc(O)cc1)c1ccc(N2CCOCC2)cc1,-0.5%,-5%,-0.3,-3,-9,x,3.6
NC(=O)C1CCN(C(=O)CN2CCN(c3cccc(C(F)(F)F)c3)CC2)CC1,-1.9%,12%,-0.7,-8,-14,-0.4%,0.5
Cc1ccc(C2=CC(c3ccc(C)cc3)n3ncnc3N2)cc1 (configuration not stated),0.1%,x,0.1,5,x,3.8%,x
CCc1cc2c3c(c(=O)oc2cc1OC)CCCC3,-0.8%,1%,0.6,-13,8,35µM*,3.6
# Further entries follow.
SMILES,PINK1 modulator,Sfp PPTase inh,TRPML1 ag,TRPML1 inh,TRPV1 PAM,ClpP mod,Menin MLL FP FL
Cc1ccc(F)cc1NC(=O)CSc1nc(Nc2ccccc2)nc(N2CCOCC2)n1,3.2%,8%,1.2,7,6,-2.4%,x
Cc1ccc(Oc2ccc(Oc3ccc(C)cc3)nn2)cc1,-0.5%,-3%,-0.2,-6,19,0.5%,-5.8
COP(=O)(c1ccc(N(C)C)cc1)C(O)c1ccccc1 (configuration not stated),1.8%,-1%,-0.7,5,-25,-0.6%,1.1
CC(C)NCCCCOc1cccc(Br)c1,-0.8%,-12%,2.7,26,29,-2.1%,3.4
CCOC(=O)c1c(C)oc2c1c(C(c1cccnc1)N1CCN(C)CC1)c(O)c1ccccc12 (configuration not stated),x,-26%,x,x,-14,x,4.7
CCOC(=O)c1c(C)[nH]c(C(=O)COC(=O)c2oc3ccccc3c2C)c1C,4.5%,-7%,-0.9,-1,-2,-0.1%,1.3
N#CCSc1nc(N)c(C#N)c(C2CCCCC2)c1C#N,-1.3%,2%,-0.6,3,0,-16%,1.1
Cc1sc(N/N=C/C=C/c2ccccc2)nc1-c1ccccc1,1.3%,-9%,1.3,7,-1,-13%,5.8
CCc1ccc(OCC(=O)Nc2cc3oc4ccccc4c3cc2OC)cc1,5.8%,x,-0.6,-8,x,-12%,x
COc1ccc(/C=N/NC(=O)C2COc3ccccc3O2)cc1OC (configuration not stated),0.5%,17%,-0.5,15,1,x,-2.9
C=CC[C@@H](CC(=O)OC(C)(C)C)C(=O)OC[C@H]1CCCN1C(=O)[C@@H](CC=C)CC(=O)NCCO,0.4%,x,-0.7,10,x,-0.6%,x
COc1ccc(C(F)(F)F)cc1NC(=O)c1nc2nc(C)cc(C(F)F)n2n1,12%,7%,-0.6,-15,1,-5.8%,8.7
O=C(COC(=O)c1cccc2ccccc12)NCCCc1ccccc1,0.0%&1.2%,5%,1.9&1.0,-29,-10,4.2%,3.3
CCOC(=O)c1ccc(-c2n[nH]c(=O)c3ccccc23)cc1,12%[38.3 µM],9%,-0.4,-6,4,0.6%,1.8
CCN(Cc1nc2ccccc2c(=O)[nH]1)C(=O)c1ccc(C)c(NC(=O)c2ccco2)c1,0.2%,x,0.6,-8,6,-4.6%,x
Cc1c(Cl)cccc1NC(=O)C1CCCCC1,x,5%,x,x,-33,x,-5.0
Cc1cccn2c(=O)nc(SCC(=O)NCc3ccccc3Cl)nc12,-0.6%,x,0.5,-2,7,0.2%,x
COC(=O)Cc1c(C)c2ccc(OC3CCCCC3=O)cc2oc1=O (configuration not stated),2.4%,14%,-0.5,-8,0,4.1%,2.6
COC(=O)CSc1ccc2nnc(-c3ccc(F)cc3)n2n1,u,6%,0.8,4,x,u,3.2
CN(C)C(=O)c1cccc(-c2cnc3c(NC=O)cc(-c4cccc(C(F)(F)F)c4)cn23)c1,-1.2%,x,-0.4,-3,x,-26%,x
COc1ccc(Cl)cc1NC(=O)CSc1cc(C)[nH]c(=O)n1,0.6%,x,-0.3,6,x,-1.1%,x
COc1ccc(CCN(C)C(=O)/C=C/c2c(Cl)nc3ccccn23)cc1OC,3.1%,-1%,-0.5,2,-21,x,0.8
CCC(CCCO)CCC[C@H](C)CCC1OCCO1 (some centres not stated),7.2%,x,0.9,-19,-10,1.4%,x
COc1ccc(CCNC(=O)c2nn(C)c3c2CS(=O)(=O)c2ccccc2-3)cc1OC,-2.3%,21%,3.3,-1,3,2.0%,1.8
NC(=O)c1ccsc1NC(=O)COC(=O)C1CC2CCCC(C1)C2=O (configuration not stated),-1.3%,-3%,0.6,-5,8,x,1.0
# Next part
SMILES,PINK1 modulator,Sfp PPTase inh,TRPML1 ag,TRPML1 inh,TRPV1 PAM,ClpP mod,Menin MLL FP FL
Cc1ccc(-c2csc(-c3cc4c([nH]c3=O)CC(c3ccccc3)CC4=O)n2)cc1 (configuration not stated),10%,x,0.6,-11,x,-8.0%,x
COc1ccc(C(C(=O)NCc2ccc(F)cc2)N(C(=O)c2csnn2)C2CC2)cc1 (configuration not stated),2.2%,9%,-0.3,22,-12,x,-3.1
Cc1c(C(=O)N2CCN(c3ccccn3)CC2)oc2ccccc12,3.3%[38.3 µM],12%,2.0,-11,-15,-0.3%,-1.7
NC(=O)c1ncn([C@@H]2O[C@H](CNC(=O)[C@@H](N)Cc3cccnc3)[C@@H](O)[C@H]2O)n1,1.5%,x,0.3,28,x,0.6%,x
C/C(=C\c1ccccc1)CN1CCN(Cc2ccc(C)o2)C(CCO)C1 (configuration not stated),0.9%,21%,0.0,-5,8,0.7%,0.7
Cc1cc(=O)oc(C)c1C(=O)N1CCCCC1,0.6%,11%,0.6,-14,0,0.0%,-0.4
Cc1ccccc1Cn1c2ccccc2c2cnn(CC(=O)NCC(C)c3ccccc3)c(=O)c21 (configuration not stated),2.2%,x,1.3,8,x,u,x
COc1ccc(NS(=O)(=O)Cc2ccccc2)cc1OC,u,2%,-0.6,2,-6,1.4%,2.0
Cc1cc2ccccc2n1CCNC(=O)c1cccc(Cl)c1,1.9%,x,-1.0,3,x,-3.6%,x
Cc1ccc(C(=O)O/N=C/c2c(C(F)(F)F)nn(C)c2Sc2ccc(Cl)cc2)cc1,3.9%,14%,0.5,8,2,1.4%,-0.2
CC(C)(C)OC(=O)N/N=C\c1ccc([N+](=O)[O-])s1,0.0%,0%,1.7,0,-9,x,2.5

# Three entries from above, sorted by number of heavy atoms, high to low:
SMILES,PINK1 modulator,Sfp PPTase inh,TRPML1 ag,TRPML1 inh,TRPV1 PAM,ClpP mod,Menin MLL FP FL
NC(=O)C1CCN(C(=O)CN2CCN(c3cccc(C(F)(F)F)c3)CC2)CC1,-1.9%,12%,-0.7,-8,-14,-0.4%,0.5
Cc1cccn2c(=O)nc(SCC(=O)NCc3ccccc3Cl)nc12,-0.6%,x,0.5,-2,7,0.2%,x
Cc1ccc2nc(C)c(Cl)c(=O)n2c1,-0.8%,21%,-0.4,1,-4,-12%,-0.3

# Screening results deposited in PubChem by National Center for Advancing Translational Sciences (NCATS).
